High-throughput results: PubChem, several laboratories
INS promoter inh – inhibitors of insulin promoter-driven GFP, primary screen, imaging, TRM-6 cells (human fetal islet line), eGFP reporter, cell count. inhibition, % at 2 µM. reporter expression induced with tamoxifen. 0.9% of 130,000 active;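 active = inhibition above the mean plus 3 SD, with well images judged a real hit on visual review, cut at about 60% in these data, passing the limit was not always enough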
RGS16-Gao – modulators of RGS16 binding to Galphao, primary screen, biochemical, human proteins, multiplexed bead flow cytometry; binding response (% of control), % at 10 µM; 0.38% of 220,000 active; Regulator of G-protein signaling 16 (Homo sapiens) + Guanine nucleotide-binding protein …; bead-based flow cytometry RGS16-Galphao binding, fluorescence; actives lie on both sides; AID 1441, 2008;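 active = below 25% or above 175%, edge rows of some plates excepted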;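 note: Galphao activated by GDP with aluminum fluoride before binding; 100% = wells without compound and 0% = beads without RGS; some results beyond the cut were filed as inactive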
Target sequence (O15492 whole entry, looked up): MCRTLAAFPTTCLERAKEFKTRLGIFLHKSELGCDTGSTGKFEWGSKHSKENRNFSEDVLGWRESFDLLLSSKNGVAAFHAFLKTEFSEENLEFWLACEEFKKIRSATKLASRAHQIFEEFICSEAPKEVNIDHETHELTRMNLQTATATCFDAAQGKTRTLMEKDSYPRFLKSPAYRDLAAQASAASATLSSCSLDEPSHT
Target sequence (P09471 whole entry, looked up): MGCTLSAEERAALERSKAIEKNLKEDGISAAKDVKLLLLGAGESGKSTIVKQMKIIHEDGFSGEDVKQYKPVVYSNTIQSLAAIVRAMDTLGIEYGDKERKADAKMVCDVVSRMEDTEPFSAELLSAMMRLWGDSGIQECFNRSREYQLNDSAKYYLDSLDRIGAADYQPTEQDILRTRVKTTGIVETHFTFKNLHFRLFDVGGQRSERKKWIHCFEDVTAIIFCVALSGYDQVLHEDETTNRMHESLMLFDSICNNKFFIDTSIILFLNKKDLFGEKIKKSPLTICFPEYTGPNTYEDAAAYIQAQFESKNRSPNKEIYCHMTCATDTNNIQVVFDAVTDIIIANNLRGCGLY
HSV replic up – enhancers of HSV replication in host cells, fold increase, host cell viability; HSV replication augmentation in cells; maximum fold increase; 0.005% of 220,000 active; AID 1956, 2009;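 active = peak rise of 1.5-fold or more in the series; tested in PC3 cells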;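 note: first round at 10 µM; read as green reporter fluorescence; hits show the peak of a series up to 25 µM; 1 = signal of infected wells without compound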
GALR2 agonist – GALR2 receptor agonists, primary screen, cell-based. Galanin receptor type 2 (Homo sapiens), O43603. GALR2-expressing cells, agonist activation read-out. activation, %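 (tested at 5 µM)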. 0.48% of 140,000 active. AID 803, 2007;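 active = above mean plus 3 SD of all compounds, about 5% in these data, not always enough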;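 note: 0% = vehicle buffer wells and 100% = reference agonist at full effect; tested in CHO reporter cells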
Target sequence (O43603 whole entry, looked up): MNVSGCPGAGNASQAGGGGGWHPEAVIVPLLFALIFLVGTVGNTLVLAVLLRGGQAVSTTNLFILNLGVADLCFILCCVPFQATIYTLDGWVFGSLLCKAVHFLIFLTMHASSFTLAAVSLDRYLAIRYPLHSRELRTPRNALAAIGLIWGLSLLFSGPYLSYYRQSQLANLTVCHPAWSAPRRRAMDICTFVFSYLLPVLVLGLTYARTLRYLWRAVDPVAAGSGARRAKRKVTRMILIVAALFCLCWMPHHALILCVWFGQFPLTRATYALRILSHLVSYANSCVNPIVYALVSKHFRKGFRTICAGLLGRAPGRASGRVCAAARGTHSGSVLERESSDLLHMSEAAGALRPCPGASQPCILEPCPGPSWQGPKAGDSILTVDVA
PKD1 kinase inh – inhibitors of human PKD1 kinase, biochemical, fluorescence polarization; Serine/threonine-protein kinase D1 (Homo sapiens), Q15139; PKD1 kinase fluorescence polarization assay; inhibition, %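 (about 10 µM by stock and volumes)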; 0.056% of 200,000 active; AID 797, 2007;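 active = inhibition of 50% or more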;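 note: controls were vehicle for no effect and a reference inhibitor for full effect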
INS promoter inh cell count – further read-out of INS promoter inh, marked with its call; normalized cell count, %; measured here: cell count, toxicity; reference of the scale not given here;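 cells exposed to compound for 48 h; stained nuclei by imaging scaled within each plate; lower means fewer cells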
HSV replic up primary fold – second read-out of HSV replic up, no call of its own (marks repeat the call); fold increase; compound at 10 µM; measured here: primary screen fold increase 10 uM; tested in PC3 cells;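 GFP signal in the first replicate; 1 = infected wells without compound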
* = called active by the depositor.

What do the screens show for `Cc1ccc(NC(=O)CN2CCCCCC2)cc1[N+](=O)[O-]`?
RGS16-Gao: 98; HSV replic up: inactive; PKD1 kinase inh: 9; HSV replic up primary fold: 0.93

How did CC1CCN(C(c2ccc(N(C)C)cc2)c2nnnn2Cc2ccccc2)CC1 (stereo not drawn) do in these assays?
RGS16-Gao: 103; HSV replic up: inactive; GALR2 agonist: -1.4; PKD1 kinase inh: 6; HSV replic up primary fold: 1

How did Cc1ccc(-c2csc(NC(=O)CSC3=NCCS3)n2)cc1 do in these assays?
INS promoter inh: -217; RGS16-Gao: 105; HSV replic up: inactive; GALR2 agonist: -2.5; PKD1 kinase inh: 1; INS promoter inh cell count: 87; HSV replic up primary fold: 0.96

How did Cc1cc(-c2ccccc2)nc(=O)[nH]1 do in these assays?
RGS16-Gao: 99; HSV replic up: inactive; GALR2 agonist: -1.0; PKD1 kinase inh: -4; HSV replic up primary fold: 1

How did O=c1c(Cl)c(NCCO)cnn1-c1cccc(Cl)c1 do in these assays?
RGS16-Gao: 99; HSV replic up: inactive; PKD1 kinase inh: -10; HSV replic up primary fold: 0.99

How did O=C(/C=C/Nc1ccccc1)c1cnc(-c2ccccc2)s1 do in these assays?
INS promoter inh: -46; RGS16-Gao: 112; HSV replic up: inactive; GALR2 agonist: -2.9; PKD1 kinase inh: 6; INS promoter inh cell count: 130; HSV replic up primary fold: 1

Results for COc1ccc(N(Cc2ccccc2)S(=O)(=O)c2cccc(C(=O)O)c2)cc1 ?
RGS16-Gao: 104; HSV replic up: inactive; HSV replic up primary fold: 1

How did Cc1cc(C(=O)C(=O)N(C)C)c(C)n1-c1ccc(Cl)cc1 do in these assays?
RGS16-Gao: 100; HSV replic up: inactive; PKD1 kinase inh: -3; HSV replic up primary fold: 0.99

What do the screens show for `COc1ccc(/C(C)=N\NC(=O)CSc2nnc(C)s2)cc1`?
RGS16-Gao: 103; HSV replic up: inactive; GALR2 agonist: 0.1; PKD1 kinase inh: 1; HSV replic up primary fold: 1

Results for O=C(NCC1CCCO1)C(c1ccc(F)cc1)N(CCCN1CCOCC1)C(=O)c1ccc(-c2ccccc2)[nH]1 (stereo not drawn) ?
INS promoter inh: -88; RGS16-Gao: 101; HSV replic up: inactive; PKD1 kinase inh: 3; INS promoter inh cell count: 109; HSV replic up primary fold: 0.96

How did O=C(c1ccc(-c2nnc(-c3ccccc3)o2)cc1)N1CCCCCC1 do in these assays?
INS promoter inh: -7; RGS16-Gao: 132; HSV replic up: inactive; GALR2 agonist: -3.9; PKD1 kinase inh: -13; INS promoter inh cell count: 172; HSV replic up primary fold: 0.95

Results for COCCCn1c(SCC(=O)NC2CCCCC2)nnc1-c1ccncc1 ?
INS promoter inh: 15; RGS16-Gao: 94; HSV replic up: inactive; GALR2 agonist: -2.5; PKD1 kinase inh: -11; INS promoter inh cell count: 94; HSV replic up primary fold: 0.83

What do the screens show for `O=C(Cc1ccc(-n2c(=O)c3sccc3n(Cc3ccc(F)cc3)c2=O)cc1)NCc1ccco1`?
RGS16-Gao: 114; HSV replic up: inactive; GALR2 agonist: -0.8; PKD1 kinase inh: -12; HSV replic up primary fold: 0.67

What do the screens show for `COc1ccc(/C=C/C(=O)c2ccc3c(c2)OCO3)c(OC)c1`?
INS promoter inh: 17; RGS16-Gao: 109; HSV replic up: inactive; GALR2 agonist: 0.1; PKD1 kinase inh: -3; INS promoter inh cell count: 136; HSV replic up primary fold: 0.85

How did Cc1cc(C)c(C(N)=O)c(Nc2cccc(Cl)c2C)n1 do in these assays?
INS promoter inh: 31; RGS16-Gao: 109; HSV replic up: inactive; GALR2 agonist: -2.9; PKD1 kinase inh: -9; INS promoter inh cell count: 129; HSV replic up primary fold: 0.91

5 records picked at random from the list so far, as already listed:
How did O=c1c(Cl)c(NCCO)cnn1-c1cccc(Cl)c1 do in these assays?
RGS16-Gao: 99; HSV replic up: inactive; PKD1 kinase inh: -10; HSV replic up primary fold: 0.99

Results for COc1ccc(N(Cc2ccccc2)S(=O)(=O)c2cccc(C(=O)O)c2)cc1 ?
RGS16-Gao: 104; HSV replic up: inactive; HSV replic up primary fold: 1

What do the screens show for `O=C(Cc1ccc(-n2c(=O)c3sccc3n(Cc3ccc(F)cc3)c2=O)cc1)NCc1ccco1`?
RGS16-Gao: 114; HSV replic up: inactive; GALR2 agonist: -0.8; PKD1 kinase inh: -12; HSV replic up primary fold: 0.67

Results for O=C(NCC1CCCO1)C(c1ccc(F)cc1)N(CCCN1CCOCC1)C(=O)c1ccc(-c2ccccc2)[nH]1 (stereo not drawn) ?
INS promoter inh: -88; RGS16-Gao: 101; HSV replic up: inactive; PKD1 kinase inh: 3; INS promoter inh cell count: 109; HSV replic up primary fold: 0.96

How did Cc1cc(C)c(C(N)=O)c(Nc2cccc(Cl)c2C)n1 do in these assays?
INS promoter inh: 31; RGS16-Gao: 109; HSV replic up: inactive; GALR2 agonist: -2.9; PKD1 kinase inh: -9; INS promoter inh cell count: 129; HSV replic up primary fold: 0.91

Next part.
How did CCOC(=O)C(C(C)=O)c1nc(C)nc2c1nnn2Cc1ccccc1Cl (stereo not drawn) do in these assays?
INS promoter inh: 51; RGS16-Gao: 103; HSV replic up: inactive; GALR2 agonist: 0.4; PKD1 kinase inh: 5; INS promoter inh cell count: 83; HSV replic up primary fold: 0.97

How did CC(C)CNC(=O)C(=O)NC1CCCC1 do in these assays?
INS promoter inh: 15; HSV replic up: inactive; GALR2 agonist: -2.4; PKD1 kinase inh: 1; INS promoter inh cell count: 88; HSV replic up primary fold: 0.98

How did C[C@@H](C(=O)Nc1ccc2ccccc2c1)[C@@H]1C[C@@]1(C)[C@@H](NC(=O)c1cccnc1)c1ccccc1 do in these assays?
INS promoter inh: -9; RGS16-Gao: 101; GALR2 agonist: -0.8; PKD1 kinase inh: -12; INS promoter inh cell count: 102

How did Cn1nc(C(F)(F)F)c(-c2ccccc2)c1NC(=O)c1nccnc1C(=O)O do in these assays?
RGS16-Gao: 107; HSV replic up: inactive; HSV replic up primary fold: 0.99

Results for CCOc1ccccc1CNC(=O)C1CCC(=O)N1C(C)C (stereo not drawn) ?
RGS16-Gao: 103; HSV replic up: inactive; GALR2 agonist: -3.7; PKD1 kinase inh: 12; HSV replic up primary fold: 0.87

What do the screens show for `CC(C)=CCc1c(C)nc2ccccc2c1C(=O)O`?
INS promoter inh: -57; RGS16-Gao: 102; HSV replic up: inactive; GALR2 agonist: -2.5; PKD1 kinase inh: -5; INS promoter inh cell count: 123; HSV replic up primary fold: 0.95

Results for O=C(Nc1ccccc1)N1N=C(c2cccs2)CC1c1cccs1 (stereo not drawn) ?
INS promoter inh: 15; RGS16-Gao: 106; HSV replic up: inactive; GALR2 agonist: -0.5; PKD1 kinase inh: 4; INS promoter inh cell count: 74; HSV replic up primary fold: 0.93

What do the screens show for `COc1ccc(-c2ccc(SCC(=O)NCc3ccc4c(c3)OCO4)nn2)cc1OC`?
INS promoter inh: -183; RGS16-Gao: 114; HSV replic up: inactive; PKD1 kinase inh: -9; INS promoter inh cell count: 95; HSV replic up primary fold: 0.96

What do the screens show for `Cc1cc(C(=O)NCc2cccs2)c(C)o1`?
INS promoter inh: -17; RGS16-Gao: 11; HSV replic up: inactive; GALR2 agonist: -1.6; PKD1 kinase inh: -6; INS promoter inh cell count: 111; HSV replic up primary fold: 0.99

What do the screens show for `O=C1CC(c2ccccc2)CC(O)=C1C=Nc1ccccc1Cl` (stereo not drawn)?
INS promoter inh: 14; RGS16-Gao: 103; HSV replic up: inactive; GALR2 agonist: -0.8; PKD1 kinase inh: 3; INS promoter inh cell count: 112; HSV replic up primary fold: 1

What do the screens show for `COc1ccc(N2CCN(C(=O)COc3ccc4c(C)cc(=O)oc4c3)CC2)cc1`?
INS promoter inh: 8; RGS16-Gao: 102; HSV replic up: inactive; PKD1 kinase inh: 11; INS promoter inh cell count: 132; HSV replic up primary fold: 0.92

What do the screens show for `CCOC(=O)CSc1nc2cc(C(=O)NCc3ccco3)ccc2c(=O)n1-c1ccc(F)cc1`?
RGS16-Gao: 100; HSV replic up: inactive; HSV replic up primary fold: 0.77

Results for CCN(CC)S(=O)(=O)c1ccc(OC)c(NC(=O)c2cccs2)c1 ?
RGS16-Gao: 100; HSV replic up: inactive; PKD1 kinase inh: -9; HSV replic up primary fold: 0.81

How did CCOC(=O)Cn1c2[n+](c3ccccc31)CC(O)CS2 (stereo not drawn) do in these assays?
INS promoter inh: -26; RGS16-Gao: 101; HSV replic up: inactive; GALR2 agonist: -2.5; PKD1 kinase inh: -3; INS promoter inh cell count: 54; HSV replic up primary fold: 0.73

What do the screens show for `N#C/C(=C\c1ccncc1)c1nc2ccccc2c(=O)[nH]1`?
RGS16-Gao: 104; HSV replic up: inactive; PKD1 kinase inh: -3; HSV replic up primary fold: 0.86

What do the screens show for `COC(=O)C1(Cc2ccc(O)cc2)OC(=O)C(O)=C1c1ccc(O)cc1` (stereo not drawn)?
RGS16-Gao: 85; HSV replic up: inactive; HSV replic up primary fold: 1.3

Results for Cc1ccc(NC(=O)Cc2noc3ccccc23)c(C)c1 ?
INS promoter inh: -100; RGS16-Gao: 142; HSV replic up: inactive; GALR2 agonist: -1.0; PKD1 kinase inh: 4; INS promoter inh cell count: 31; HSV replic up primary fold: 1.1

What do the screens show for `O=C(C/C=N\OCc1c(Cl)cccc1Cl)Oc1ccc(Cl)cc1Cl`?
INS promoter inh: -34; RGS16-Gao: 97; HSV replic up: inactive; GALR2 agonist: -1.7; PKD1 kinase inh: -1; INS promoter inh cell count: 104; HSV replic up primary fold: 0.97

Results for COc1ccc(OC)c(N(CC(=O)N2CCN(c3cc(Cl)ccc3C)CC2)S(C)(=O)=O)c1 ?
INS promoter inh: -26; RGS16-Gao: 102; HSV replic up: inactive; GALR2 agonist: -1.4; PKD1 kinase inh: -5; INS promoter inh cell count: 108; HSV replic up primary fold: 1

What do the screens show for `CC(/C=N/n1c(-c2ccccn2)n[nH]c1=S)=C\c1ccccc1`?
RGS16-Gao: 93; HSV replic up: inactive; HSV replic up primary fold: 0.98

How did O=c1cc(NCc2ccc3c(c2)OCO3)[nH]c(=O)n1-c1ccc(Cl)cc1 do in these assays?
RGS16-Gao: 107; HSV replic up: inactive; GALR2 agonist: -0.7; PKD1 kinase inh: -23; HSV replic up primary fold: 1.1

Results for O=C(CCc1ccccc1)NNC(=O)c1ccccc1Br ?
INS promoter inh: 15; RGS16-Gao: 104; HSV replic up: inactive; GALR2 agonist: -1.1; PKD1 kinase inh: 1; INS promoter inh cell count: 86; HSV replic up primary fold: 0.93

What do the screens show for `O=C1CC(c2ccco2)Cc2nc(Nc3ccc(F)cc3)ncc21` (stereo not drawn)?
INS promoter inh: 7; RGS16-Gao: 102; HSV replic up: inactive; GALR2 agonist: -2.6; PKD1 kinase inh: -5; INS promoter inh cell count: 114; HSV replic up primary fold: 1

How did COc1cc2cc(CN(C(=O)NC3CCCCC3)C3CCCC3)c(=O)[nH]c2cc1OC do in these assays?
RGS16-Gao: 105; HSV replic up: inactive; GALR2 agonist: -1.8; PKD1 kinase inh: -11; HSV replic up primary fold: 0.91

What do the screens show for `Cc1cccc(OCC(O)CN2CC3(C)CC2CC(C)(C)C3)c1` (stereo not drawn)?
INS promoter inh: -6; RGS16-Gao: 119; HSV replic up: inactive; GALR2 agonist: 6.8*; PKD1 kinase inh: 1; INS promoter inh cell count: 133; HSV replic up primary fold: 0.98

How did O=C(NCCCN1CCCCC1)C1(S(=O)(=O)c2ccc(Cl)cc2)CC1 do in these assays?
RGS16-Gao: 102; HSV replic up: inactive; GALR2 agonist: -1.4; PKD1 kinase inh: -17; HSV replic up primary fold: 0.93

Results for CCCc1cc(=O)[nH]c(SCC(=O)Nc2nc3ccc(OCC)cc3s2)n1 ?
RGS16-Gao: 103; HSV replic up: inactive; PKD1 kinase inh: 2; HSV replic up primary fold: 0.97

How did Cn1c(-c2ccc3c(c2)OCO3)cc(=O)c2ccccc21 do in these assays?
RGS16-Gao: 106; HSV replic up: inactive; PKD1 kinase inh: 1; HSV replic up primary fold: 1

What do the screens show for `COCCNC(=O)C1CC(=O)N(C2CCCCC2)C1` (stereo not drawn)?
INS promoter inh: -67; RGS16-Gao: 103; HSV replic up: inactive; GALR2 agonist: -3.2; PKD1 kinase inh: 8; INS promoter inh cell count: 73; HSV replic up primary fold: 1

How did CCCn1c(N)c(N(CCOC)C(=O)/C=C/c2cccc(Cl)c2)c(=O)[nH]c1=O do in these assays?
RGS16-Gao: 105; HSV replic up: inactive; PKD1 kinase inh: 7; HSV replic up primary fold: 1.4
